Ecoli growth – E. coli growth inhibition, primary screen, OD600; Escherichia coli growth, 23 h; hits give low values; OD600 absorbance (no concentration beside the values); 330,000 tested, 0.21% active;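 active = OD600 absorbance below the run mean of sample wells minus 3.6 SD, in any replicate, cut at about 0.56 in these data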;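 note: stock transfer was 300 nL into about 60 µL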
UCH37 inh – inhibitors of human UCH37 deubiquitinase, primary screen, biochemical, Ub-AMC cleavage, fluorescence; Ubiquitin carboxyl-terminal hydrolase isozyme L5 (Homo sapiens), Q9Y5K5; purified proteasome/UCH37; inhibition, % (test concentration not listed); 330,000 tested, 0.33% active; AID 588478, 2011;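 active = mean of two replicates above 20%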;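 note: 0% = compound-free wells with enzyme and 100% = wells lacking proteasome; stock transfer was 100 nL into about 20 µL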
Target sequence (Q9Y5K5 whole entry, looked up): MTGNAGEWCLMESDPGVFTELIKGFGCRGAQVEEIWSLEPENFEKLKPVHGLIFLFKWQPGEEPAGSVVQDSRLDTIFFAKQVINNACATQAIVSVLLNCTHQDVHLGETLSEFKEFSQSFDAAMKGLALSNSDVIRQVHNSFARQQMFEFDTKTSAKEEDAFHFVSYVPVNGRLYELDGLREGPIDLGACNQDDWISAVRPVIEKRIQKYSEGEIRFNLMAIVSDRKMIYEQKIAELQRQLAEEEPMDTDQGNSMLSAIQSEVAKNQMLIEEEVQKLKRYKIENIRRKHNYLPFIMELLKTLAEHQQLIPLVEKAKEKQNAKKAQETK
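Assay system: Proteasome-bound UCH37. Buffer or medium: pH 7.4 Tris-HCl (50 mM) with ovalbumin, ATP-MgCl2, DTT. Incubation: 30 min preincubation with enzyme, 25 min cleavage at room temperature. Measured by: fluorescence, ex 355 nm, em 460 nm. Read-out basis: percent inhibition. Control set: wells without proteasome as full block, compound-free enzyme plus substrate as uninhibited.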
B2AR ag – beta2AR agonists driving receptor internalization, primary screen, cell-based, FAP fluorogen, flow cytometry. response, % (no concentration beside the values). Am2.2-beta2AR cells; reference of the scale not given here. Beta-2 adrenergic receptor (Homo sapiens), P07550. 340,000 tested, 0.43% active;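 active = response above a set limit, near 3 SD of response in nonfluorescent compounds, cut at about 42% in these data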;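 note: stock transfer was 100 nL into about 11 µL; a reference agonist was the positive control; negative values mostly stem from fluorescent compounds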
Target sequence (P07550 whole entry, looked up): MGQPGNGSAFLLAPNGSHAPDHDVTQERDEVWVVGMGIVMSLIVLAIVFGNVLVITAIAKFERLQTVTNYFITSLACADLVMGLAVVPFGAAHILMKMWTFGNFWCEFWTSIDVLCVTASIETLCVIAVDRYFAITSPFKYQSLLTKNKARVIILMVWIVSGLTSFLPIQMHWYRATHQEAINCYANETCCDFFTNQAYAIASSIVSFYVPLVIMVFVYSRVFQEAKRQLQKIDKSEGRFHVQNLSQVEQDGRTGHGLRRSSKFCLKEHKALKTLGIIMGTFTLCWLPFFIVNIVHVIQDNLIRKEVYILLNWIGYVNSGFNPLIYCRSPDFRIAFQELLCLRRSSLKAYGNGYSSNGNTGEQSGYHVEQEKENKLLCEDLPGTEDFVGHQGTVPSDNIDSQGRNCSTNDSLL
Bfl-1 A1 inh – caspase 3/7 activation in MEF A1-2A-BIM cells, primary screen, A1 inhibitor project, cell-based, luminescence, HTS. Caspase-Glo 3/7 luminescence, 3 h; percent of clofoctol response, vehicle zero. caspase activation, % (no concentration beside the values). 330,000 tested, 0.066% active. AID 2462, 2010;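 active = over half of replicate activation scores above 10%, or exactly half above 10 with the replicate mean above 10; inconclusive = replicate mean below 10 yet half the replicates above 10; inactive = over half of replicates below 10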;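 note: wells of about 30 µL received 50 nL stock; many hits fall short of the cut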
HNF4A DNA FP – change in binding of human HNF4A to DNA, primary screen, biochemical, fluorescence polarization, FITC-DNA; AID 1224865, 2016; Hepatocyte nuclear factor 4-alpha (Homo sapiens), P41235; 1 h; 360,000 tested, 0.3% active; activity change, % at 10 µM; in the data active = activity change above about 30%, passing the limit was not always enough;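 note: controls were the assay level and a saturating level of protein; the project sought stronger binding though the title names inhibitors; some compounds called inactive have numbers as strong as hits; positive values seem to mean higher polarization but the record does not say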
Vif A3G – inhibitors of Vif binding to APOBEC3G peptide, primary screen, biochemical, TR-FRET, GST-Vif 1-94, biotin-A3G peptide, dose response retest (AID 1117319) | Virion infectivity factor (Human immunodeficiency virus type 1 group M subtype B (isolate … | TR-FRET GST-Vif / biotin-A3G peptide binding; higher % means a stronger effect; test concentration not given here; strong numbers were not always called active | one-dose inhibition, %; IC50 in µM for titrated hits | 260,000 tested, 0.57% active;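 active = above the screen mean plus three standard deviations and confirmed in dose response; inconclusive = results disagree or hit not tested in dose response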;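 note: Vif residues 1-94 fused to GST binding biotinylated APOBEC3G peptide 110-148; 0% = full assay without inhibitor and 100% = GST in place of GST-Vif; retest series ran down from 100 µM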
LANA-H2B inh – blockers of LANA interaction with H2A/H2B – biochemical, FP readout, HTS, primary screen | Protein LANA1 (Human herpesvirus 8 type P (isolate GK18)), Q9QR71 | cell-free LANA-H2A/H2B peptide, fluorescence polarization | inhibition, % (concentration not given with the values) | 320,000 tested, 0.6% active; in the data active = inhibition mostly above about 10%, no sharp cut-off; inactive = mostly below about 6.7%;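 note: stock transfer was 7.5 nL into about 10 µL; 0% = median of vehicle wells and 100% = median of positive control wells; one replicate is shown; the record names a cut of 25% in any replicate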
* hit, by the source's call; ? = inconclusive; nt = not tested or not shown. The order is random, and some 2.1% of all compounds hit somewhere here.

SMILES | Ecoli growth | UCH37 inh | B2AR ag | Bfl-1 A1 inh | HNF4A DNA FP | Vif A3G | LANA-H2B inh
CCCOC(=O)c1ccc(NC(=O)COC)cc1 | 0.76 | 1.3 | 3 | 0.3 | 1.1 | 4% | -6.0
COC(=O)c1c(N2C(=O)CC(Sc3ccccc3C(=O)O)C2=O)sc(C)c1C (stereo not given) | 0.65 | 3.3 | 10 | 0.0 | 1.3 | 9% | 1.0
Cc1ccc(C(=O)COC(=O)c2ccc(O)cc2)cc1 | 0.7 | 1.3 | 4 | -3.5 | -1.1 | -2% | -0.9
O=C(CCC1CCCN(C(=O)c2ccc3cc[nH]c3c2)C1)NCc1ccc(F)c(F)c1 (stereo not given) | 0.68 | 2.9 | -18 | 0.4 | 2.4 | -9% | -6.0
O=[N+]([O-])c1c(NCc2ccco2)ccc2nonc12 | nt | nt | -1 | 0.2 | 2.8 | nt | 2.9
CCN1CCN(c2ncnc3sc4c(c23)CCC(C)C4)CC1 (stereo not given) | 0.68 | -0.8 | 1 | 0.3 | 4.8 | -6% | -0.9
COCCCN1C(=O)C(=O)/C(=C(/O)c2ccc(S(=O)(=O)N3CCOCC3)cc2)C1c1ccc(C)cc1 (stereo not given) | 0.7 | 10 | -4 | 0.0 | 9.4 | nt | -1.6
Cc1ccc(C)c(OCC(=O)Nc2ccccc2C(=O)NC2CC2)c1 | 0.66 | 5.5 | 5 | 0.3 | 1.4 | -4% | -3.7
O=c1[nH]c2ccc(Cl)cc2c(-c2ccccc2)c1[N+](=O)[O-] | nt | nt | 4 | 2.8 | -1.0 | 10% | 1.8
CC(C)c1ccc(NC(=O)NN2CCOCC2)cc1 | 0.63 | 1.9 | 2 | -0.7 | -0.8 | -5% | -2.2
COc1ccc(CCN2C(=O)CC(Nc3ccc(N4CCOCC4)cc3)C2=O)cc1OC (stereo not given) | 0.7 | 2.9 | -2 | 0.1 | 2.1 | ? | 2.8
COc1ccc(NC(=O)CCOc2ccc(C)cc2)c(OC)c1 | 0.63 | -0.3 | 1 | 0.3 | -1.1 | nt | 4.2
Cc1ccc(OCCC(=O)Nc2ccc3c(c2)OCO3)cc1 | 0.66 | -0.1 | -14 | 0.7 | -0.3 | 3% | 0.5
COc1cccc(/C=C/C(=O)NCCc2ccc(OC)c(OC)c2)c1 | 0.67 | -1.9 | 2 | -1.7 | 1.4 | nt | 4.8
Cn1c(=O)[nH]c(=O)c2c1nc(N1CCN(CCO)CC1)n2Cc1ccccc1Cl | 0.68 | 4.3 | 3 | -0.4 | -0.3 | nt | 0.3
COc1cccc(CN2CCN(C(=O)c3cccc(OC)c3)CC2)c1 | 0.61 | 2.1 | -3 | -0.5 | -2.6 | nt | 8.6
CCCCn1c(CNC(=O)Cc2ccccc2)nc2ccccc21 | 0.7 | 1.3 | -3 | -0.2 | 1.4 | 1% | -2.0
CCCOc1ccc(C(=O)Nc2ccc(Cl)cn2)cc1 | 0.74 | 3.6 | 2 | 0.3 | -0.2 | 2% | 0.1
CC(C)CN1CCNC(=O)C1CC(=O)NCCc1ccc(C(F)(F)F)cc1 (stereo not given) | 0.68 | -9.9 | 5 | -0.4 | -1.8 | -2% | 0.9
c1ccc(Cn2nnnc2C(c2cccnc2)N2CCN(C3CCCCC3)CC2)cc1 (stereo not given) | 0.69 | 0.7 | 3 | -0.2 | 3.6 | 2% | 1.4
CCOC(=O)CN1C(=O)S/C(=C/c2ccco2)C1=O | 0.67 | 8.0 | -2 | 0.1 | 0.1 | 13% | -1.1
COc1cc(OC)cc(-c2c(-c3ccc(F)cc3)c3cc(-c4ccc5c(c4)OCCO5)ccc3n2C)c1 | 0.82 | 1.7 | 6 | 1.4 | -2.1 | nt | -1.6
CC(C)(C)n1nc2c(c1NC(=O)c1ccc(S(=O)(=O)N3CCCC3)cc1)CSC2 | nt | nt | 9 | 0.1 | -5.3 | ? | -3.4
CCOC(=O)C1=C(O)C(=O)N(C2CCCCC2)C1 | 0.68 | 1.9 | 6 | -0.4 | -2.8 | -6% | -0.8
O=[N+]([O-])c1ccc2c(c1)ncn2CCc1ccccc1 | 0.71 | 1.6 | 4 | 0.6 | -0.8 | nt | 2.8
COc1ccc(S(=O)(=O)N2CCCC2C(=O)Nc2nnc(-c3cccnc3)s2)cc1 (stereo not given) | 0.7 | -5.6 | 9 | 0.2 | 2.6 | -5% | 6.5
O=C(CSc1ncnc2sccc12)NCc1ccc2c(c1)OCO2 | 0.67 | 1.8 | -2 | -1.0 | 6.4 | -12% | -1.9
COC(=O)Nc1nnc(CC(=O)Nc2ccccc2C)s1 | 0.69 | -1.9 | 5 | 0.1 | -0.2 | -1% | -0.8
CCOc1ccc(OCCC(=O)OCC(=O)N2CCN(S(=O)(=O)c3ccc(C)cc3C)CC2)cc1 | 0.68 | 1.8 | -2 | nt | -0.9 | nt | nt
Cc1cc(SCC(=O)Nc2c(C)n(C)n(-c3ccccc3)c2=O)nc2ccccc12 | 0.69 | 5.4 | -15 | 0.3 | 0.7 | 15% | -3.2
O=C(/C=C/c1ccco1)NC(=S)Nc1cccc(-c2nc3ccccc3o2)c1 | 0.83 | 8.2 | 5 | -0.7 | 6.3 | ? | -4.0
COc1ccc(CCNC(=O)COc2ccc3c(C)cc(=O)oc3c2)cc1 | 0.74 | -4.0 | 10 | 0.3 | 0.1 | -11% | -4.6
Cc1c(NC(=O)c2cn3ccccc3n2)cccc1-n1cnnn1 | 0.68 | 0.4 | -6 | -0.6 | -1.6 | -2% | -0.2
COC(=O)C(C)Sc1nc2c(cnn2-c2ccc(Cl)cc2)c(=O)[nH]1 (stereo not given) | 0.69 | 5.6 | 5 | -0.4 | -0.6 | 10% | 3.1
CC(C)c1ccc(NC(=O)c2cccnc2)cc1 | 0.7 | 2.8 | -2 | -2.2 | -1.0 | 0% | 9.8
Cc1ccccc1OCC(=O)Nc1sc2c(c1C#N)CC(C)(C)NC2(C)C | 0.7 | 4.2 | -14 | -0.3 | 3.8 | nt | 1.2
O=C(COC(=O)Cc1ccc(Cl)cc1Cl)Nc1ccc(OC(F)F)cc1 | 0.61 | 1.1 | -2 | -0.5 | 1.1 | nt | 1.1
Nc1c(C(=O)NC2CCCC2)c2nc3ccccc3nc2n1/N=C/c1ccco1 | nt | nt | -1 | -0.1 | 13 | 8% | -12
Cc1cc([N+](=O)[O-])ccc1N | 0.67 | 13 | -5 | -0.5 | -0.7 | -8% | -4.4
Cc1ccc(-c2c3c(=O)n(C)c(=O)n(C)c3cn2Cc2ccccc2)cc1 | 0.66 | 7.2 | 4 | -0.4 | 3.8 | 5% | 0.4
Cc1cc(Nc2cc(C(=O)O)ccc2C)n2ncnc2n1 | 0.74 | 5.3 | -1 | 1.0 | 6.2 | 0% | 0.4
Cc1nn(-c2ccc(N3CCOCC3)nn2)c(C)c1CCC(=O)NCc1ccc(F)cc1 | 0.66 | 2.7 | -8 | -0.1 | 3.1 | nt | -2.9
CCC1(c2ccc(F)cc2)NC(=O)N(CC(=O)N2CCN(C(=O)c3ccco3)CC2)C1=O (stereo not given) | 0.66 | 2.5 | 3 | 1.3 | 1.2 | -6% | 4.6
O=C(C1CCCC1)N1CCC(CO)(Cc2ccccc2Cl)CC1 | 0.7 | -0.7 | 0 | 0.4 | -1.3 | 10% | -0.5
Cc1ccc(C(=O)c2ccccc2C(=O)OCC(=O)Nc2cccc([N+](=O)[O-])c2)cc1 | 0.72 | 1.9 | 4 | 0.2 | 1.7 | -5% | -3.3
c1ccc2c(c1)ncn2-c1ncnc2sc3c(c12)CCCC3 | 0.7 | -4.4 | -9 | 0.2 | -3.0 | -3% | 1.2
CCOC(=O)C1CCN(C(=O)Nc2ccc(OC(F)(F)F)cc2)CC1 | 0.65 | 0.8 | 7 | -0.5 | 8.6 | 1% | -4.0
Cc1cc(C)cc(NC(=O)Nc2cnccn2)c1 | 0.65 | 0.8 | 0 | 1.0 | 4.8 | nt | -0.7
Cc1ccc(NC(=O)CSc2nc3c(c(=O)[nH]2)CN(Cc2ccc(F)cc2)CC3)cc1C | 0.68 | 5.2 | 2 | -0.1 | 0.1 | nt | -0.4
Cc1ccc(Nc2cnn(C34CC5CC(CC(CC(=O)O)(C5)C3)C4)c(=O)c2Cl)c(Cl)c1 | 0.65 | 6.2 | -1 | 0.7 | 3.7 | 6% | 0.4

Continuation:
SMILES | Ecoli growth | UCH37 inh | B2AR ag | Bfl-1 A1 inh | HNF4A DNA FP | Vif A3G | LANA-H2B inh
Cc1ccc(NC(=O)CCc2c[nH]c3ccccc23)nc1 | 0.63 | 2.6 | -8 | 0.0 | -1.8 | 3% | 1.8
CC1(NC(=O)c2cc(Cl)nc3ccccc23)CCS(=O)(=O)C1 (stereo not given) | 0.67 | -4.3 | 5 | 2.6 | 1.4 | -8% | -14
O=C(/C=C\Nc1cccc(F)c1)c1ccc2c(c1)OCO2 | 0.68 | -8.3 | -12 | -9.7 | 0.0 | 24% | -2.9
COc1cccc(C(=O)/C=C/Nc2ccc(S(=O)(=O)Nc3ncccn3)cc2)c1 | 0.76 | -8.6 | 3 | -5.3 | -1.4 | nt | 3.0
Cc1ccc(O)c(CCc2ccccc2)n1 | 0.6 | -32 | -6 | 0.7 | 3.5 | nt | -2.9
Cc1c(C(=O)C(=O)NCCC2=CCCCC2)c2ccccc2n1C | 0.71 | 5.8 | -5 | -1.6 | 0.6 | 23% | 0.5
O=S(=O)(NCc1ccccc1)c1cccs1 | 0.73 | 1.8 | -8 | -0.1 | -1.4 | -2% | -0.5
CCSc1nc(C)nc2c1oc1ccccc12 | 0.65 | 22* | -7 | -0.2 | 0.9 | -2% | -2.5
COC(=O)[C@@]1(Cc2ccc(OC)cc2)[C@H]2c3cc(C(=O)N(C)C)[nH]c3C[C@H]2CN1C(=O)c1ccccc1 | nt | 2.6 | -16 | -1.7 | -2.3 | -3% | 3.6
CCOc1cc(CNc2cccc3[nH]c(C)nc23)ccc1OC | 0.69 | 5.2 | -1 | 0.9 | 1.8 | 4% | -1.4

UCH37 inh: hit marks shown above
compound | UCH37 inh | B2AR ag | Bfl-1 A1 inh | Vif A3G | LANA-H2B inh
CCSc1nc(C)nc2c1oc1ccccc12 | 22* | -7 | -0.2 | -2% | -2.5

Going on with the list:
SMILES | Ecoli growth | UCH37 inh | B2AR ag | Bfl-1 A1 inh | HNF4A DNA FP | Vif A3G | LANA-H2B inh
CN1CCN(c2ccc(-c3ccnn3C(=O)Nc3cccc(C(F)(F)F)c3)cc2)CC1 | 0.62 | -53 | -1 | -2.2 | 4.1 | 9% | -0.7
COc1cc(C=NNC(=O)c2cccnc2)ccc1OC(=O)c1ccccc1F | 0.73 | 2.8 | -9 | -1.2 | 0.5 | nt | 3.5
O=C(Nc1ccncc1)Nc1ccc(F)c(Cl)c1 | 0.51* | 3.8 | 11 | -1.0 | 0.5 | 25% | -2.6
COc1ccc(/C=N/N(Cc2ccccc2)c2ccccc2)cc1O | nt | nt | 2 | 1.1 | -1.1 | 1% | -3.2
O=C(OCC(=O)N1CCCC1=O)c1nc(Cl)c(Cl)c(Cl)c1Cl | 0.75 | 5.9 | 16 | 0.7 | -2.8 | 18% | 1.0
COc1ccccc1/C=C/C=N/NC(=O)CN1CCN(Cc2ccccc2)CC1 | nt | nt | -7 | 1.3 | -2.0 | nt | -2.0
